Bioassay records from PubChem BioAssay.
GLA inh pH 4.5: alpha-galactosidase A (human) inhibition, pH 4.5 | P06280 | purified enzyme, 4-MU-alpha-Gal fluorescence, pH 4.5 | activity change, negative = inhibition, % at 105 µM | 230,000 tested, under 10 active; inconclusive = small, poorly fitted or top-dose-only inhibition, or a rising curve; inactive = flat fitted curve, though single readings scatter; no compound was filed as active;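 also: 0% = full activity with enzyme and -100% = basal without enzyme; dose as in the result columns while the protocol names 77 µM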
Target sequence (P06280 whole entry, looked up): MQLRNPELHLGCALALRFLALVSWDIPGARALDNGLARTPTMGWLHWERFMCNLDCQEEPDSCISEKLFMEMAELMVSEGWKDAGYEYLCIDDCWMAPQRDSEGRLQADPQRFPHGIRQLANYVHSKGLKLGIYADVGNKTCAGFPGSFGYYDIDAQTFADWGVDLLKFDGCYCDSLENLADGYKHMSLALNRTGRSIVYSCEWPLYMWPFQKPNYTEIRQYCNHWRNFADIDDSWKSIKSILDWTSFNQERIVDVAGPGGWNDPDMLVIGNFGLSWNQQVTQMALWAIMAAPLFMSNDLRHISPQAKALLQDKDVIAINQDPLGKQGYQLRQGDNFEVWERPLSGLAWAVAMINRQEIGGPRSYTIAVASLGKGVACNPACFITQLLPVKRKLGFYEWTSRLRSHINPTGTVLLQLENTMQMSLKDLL
miR-21 reporter: raises the signal of a miR-21 reporter; HeLa miR-21 FLuc reporter, luciferase, 48 h; Potency, µM (series often up to 38.3 µM), for the others: top-dose reporter change, positive = more light; 340,000 tested, under 10 active; active = well fitted rising curve with a large enough effect; inconclusive = small, poorly fitted or top-dose-only effect; inactive = no such curve, though single readings can be large or run the other way;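 also: % of control where 0% means no effect; miR-21 action dims this reporter so a rising signal means less miR-21 action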
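HeLa miR-21-FLuc reporter line, endogenous miR-21; 2000 cells/well in DMEM/10% FBS; compound titration up to ~40uM final, 48 h, 37 degree Celsius; luciferase detection reagent, 15 min lysis, CCD luminescence.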
Rango release inh: prevents RanGTP from dissociating the Rango-importin beta complex. O95149+P62826. Biochemical FRET Rango-importin beta, RanGTP-induced dissociation. Potency, µM (series often up to 46.1 µM), inactives show top-dose activity change, negative = inhibition. 340,000 compounds, 0.071% hits. AID 540253; active means falling FRET ratio curve, often poorly fitted, with flat reads before Ran was added; inconclusive means other falling curves, or compound fluorescence or quenching; inactive means flat or rising ratio curve;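 also: potency is read from the fitted curve at half-maximal effect; % of control where 0% means no effect; nearly all actives have a fitted effect of over 45% in size; -100% = wells without RanGTP and RCC1; the record marks most hits as doubtful in a second field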
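Two FRET readings bracket the reaction: one 5 min after compound meets Rango–importin beta, another 45 min after RanGTP-RCC1 (0.6 uM Ran, 0.2 uM RCC1, 2 mM GTP) is added. Only the second defines inhibition.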
Rango-impB inh: Rango-importin beta binding inhibition; Rango CFP/YFP FRET sensor + importin beta, 45 min; Potency, µM (doses to about 92.2 µM), inactives show at the top dose inhibition of complex formation; 340,000 compounds, 0.031% hits; active = rising FRET ratio curve, often small or poorly fitted; inconclusive = mostly compound fluorescence or quenching in the first reads; inactive = flat curves in all reads;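 also: potency is read from the fitted curve at half-maximal effect; 0% = DMSO wells and 100% = buffer wells lacking importin beta; nearly all actives have a fitted effect of over 15% in size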
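Inhibition scored from the CFP 486 nm/YFP 530 nm FRET ratio 45 min after adding 0.125 microM importin beta to 50 nM Rango biosensor preincubated 5 min with compound (room temperature, PBS with DTT, Tween-20, BSA). No-importin wells as positive control.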
The depositor's hits bear a star; ? = inconclusive; . = no result given; [ ] = dose if it differs, or a comment.

SMILES	GLA inh pH 4.5	miR-21 reporter	Rango release inh	Rango-impB inh
CCOC(=O)CN(C(=O)COc1nc(-c2ccccc2)cc(C)c1C#N)c1ccc(F)cc1	-11	-12%	-7%	-3.4%
CCCOc1ccc(C(=O)NCC(c2cccs2)N(C)C)cc1OC (configuration not stated)	1	-11%	1%	6.4%
O=C(Nc1nccs1)c1cccc2ccccc12	.	2%	15%	1.9%
COCCn1c(=O)[nH]c2cc(C(=O)Nc3cccc(F)c3)ccc2c1=O	12	-5%	0%	-4.2%
O=C(CN1C(=O)NC2(CCCCCC2)C1=O)Nc1ccc(Br)cc1Br	.	.	-4%	2.9%
CCOc1ccc(CN2CCNC(=O)C2CC(=O)NCc2cc(C)n(C)n2)cc1 (configuration not stated)	.	0%	-19%	-1.4%
Cc1ccc(Nc2nc(-c3sc(NC(=O)c4cccc(Cl)c4)nc3C)cs2)cc1	-6	-16%	.	.
O=C1CCC(=O)N1c1ccccc1	.	0%	33%	0.8%
Cc1ccc(NC(=O)CC2(CC(=O)O)CCCC2)c(C)c1	.	-3%	7%	-0.2%
COCCn1cnc2c1c(=O)n(CC#N)c(=O)n2Cc1ccccc1	.	1%	-1%	-0.2%
O=C(Nc1ccc(O)cc1)c1ccc(NC(=O)c2ccco2)cc1	.	-18%	-19%	-4.9%
Cc1oc(-c2cccs2)nc1CN1CCC(C(=O)N2CCCC2)CC1	-19	-4%	-6%	-1.4%
CCO[C@@H]1OC(C(=O)N2CCOCC2)=C[C@H](c2ccc(C(F)(F)F)cc2)[C@H]1CCCO	2	13%	-1%	0.8%
COc1cc2c(cc1OC)n(CC(=O)NC1CCCCCC1)n1c(C)cc(=O)nc21	.	-3%	11%	3.6%
COc1ccc(CN(CC2CCC(C(=O)O)CC2)C(=S)Nc2ccccc2C)cc1 (configuration not stated)	0	2%	-4%	2.1%
Cc1cc(NC(=O)Nc2c[nH]c(=O)[nH]c2=O)ccc1Br	.	-12%	-11%	-2.8%
Cc1cc(C)c2c(N)c(C(=O)N/N=C/c3cccnc3)sc2n1	-6	-36%	-27%	?
COc1cc(Cl)ccc1OCc1cc(C(=O)N2CCN(C)CC2)no1	.	-8%	-10%	-3.3%
CC(=O)c1ccc(C)cc1OC(=O)c1cccc(F)c1	5	1%	0%	-0.2%
Fc1cccc(-c2ncc(-c3ccccc3)o2)c1	.	.	19%	0.7%
Cn1ccnc1COc1ccc(/C=N/O)cc1	.	-2%	-8%	-5.4%
COc1ccc(/C=N/Nc2nc(C)nc(N)n2)cc1	.	-39%	2%	1.9%
COc1ccc(S(=O)(=O)N2CCCC2)cc1NC(=O)c1ccccc1	.	9%	-14%	-3.7%
COc1cc(/C=C2\SC(=O)N(c3ccccc3Cl)C2=O)cc([N+](=O)[O-])c1O	-22	16%	5%	1.4%
COc1cccc(CC(=O)N2CCCC(CCC(=O)N3CCN(c4ccccn4)CC3)C2)c1 (configuration not stated)	6	-1%	2%	2.8%

Some of the entries so far, with bars between the fields:
SMILES | GLA inh pH 4.5 | miR-21 reporter | Rango release inh | Rango-impB inh
COCCn1cnc2c1c(=O)n(CC#N)c(=O)n2Cc1ccccc1 | . | 1% | -1% | -0.2%
O=C(Nc1ccc(O)cc1)c1ccc(NC(=O)c2ccco2)cc1 | . | -18% | -19% | -4.9%
Cc1oc(-c2cccs2)nc1CN1CCC(C(=O)N2CCCC2)CC1 | -19 | -4% | -6% | -1.4%

(further entries)
SMILES	GLA inh pH 4.5	miR-21 reporter	Rango release inh	Rango-impB inh
Cc1cc(C(=O)COC(=O)c2cccnc2Cl)c(C)n1C	.	.	-1%	-2.7%
CCCCOc1ccc(C(=O)N2CCC(C)CC2)cc1	-5	-19%	-3%	-3.6%
CN(CC(=O)N1CCCCCC1)S(=O)(=O)c1ccc(Br)cc1	.	-2%	11%	0.6%
CC1(C)CC(=O)C(=Cc2cn(CCC#N)nc2-c2ccc(F)cc2)C(=O)C1	7	-1%	-4%	-2.4%
O=C(CCNS(=O)(=O)c1ccccc1)N1CCCC1	.	-3%	0%	0.7%
CCCCc1ccc(NC(=O)C(C)CC)cc1 (configuration not stated)	-14	-2%	-15%	1.1%
CCOc1ccc(S(=O)(=O)Nc2ccc(O)c(Sc3ncn[nH]3)c2)cc1	6	0%	-18%	0.9%
CC1(C)C(c2cccs2)=[N+]([O-])C2(CCCCC2=O)N1O (configuration not stated)	-3	2%	2%	-1.6%
Cc1noc(C)c1COc1ccccc1C(=O)NC1CCC(C)CC1 (configuration not stated)	.	-19%	3%	2.7%
CCN1CCN(CC(O)COc2cccc(OC)c2)CC1 (configuration not stated)	6	-3%	-16%	1.1%
Fc1ccc(-c2csc(N3CCC(c4ccccc4)C3)n2)cc1 (configuration not stated)	-13	-45%	1%	-1.4%
O=C(CSc1ccc2nnc(-c3cccs3)n2n1)N1CCCC1	-4	0%	-5%	-1.4%
NC(=S)N/N=C/c1ccc2ccccc2c1	0	-28%	-8%	-2.9%
CCC(=O)N1CCn2c1nc1ccccc12	2	-7%	-7%	-0.2%
CCc1ccc(CNC(=O)CCS(=O)(=O)Cc2ccccc2F)cc1	.	-2%	11%	-0.1%
NC(=O)C1CCN(C(=O)C(Cc2ccccc2)NC(=O)c2ccccc2)CC1 (configuration not stated)	.	.	11%	0.4%
COc1ccc(CCNC(=O)CNS(=O)(=O)c2ccc(Br)cc2)cc1	.	.	-16%	0.2%
CCCCNC(=O)CCn1c(=O)c2ccccc2n(CC(=O)Nc2ccccc2OCC)c1=O	3	0%	0%	-1.1%
CC1CN(C(=O)CCC(=O)NCc2cccnc2)c2ccccc2O1 (configuration not stated)	.	1%	-13%	0.6%
Cn1nc(C(C)(C)C)c([N+](=O)[O-])c1C(N)=O	-6	1%	0%	0.4%
COC(=O)c1sccc1NC(=O)Nc1cc(C)ccc1OC	.	0%	4%	2.1%
CCCCCCSc1ccc([C@H]2N[C@@](Cc3ccccc3)(C(=O)OC)[C@H]3C(=O)N(CC)C(=O)[C@@H]23)cc1	.	.	16%	-1.3%
COc1cc(NS(=O)(=O)c2ccc(NC(=S)NC(=O)CC(C)C)cc2)nc(OC)n1	5	-14%	11%	0.5%
CC(=O)Nc1ccc2c(c1)OCO2	0	-1%	20%	-7.4%
CCC(=O)N(Cc1cc(=O)[nH]c2ccccc12)c1ccc(C)cc1	-8	-1%	-10%	0.6%

Reprinted from the part before: two entries; new compounds follow.
SMILES	GLA inh pH 4.5	miR-21 reporter	Rango release inh	Rango-impB inh
CC(=O)Nc1ccc2c(c1)OCO2	0	-1%	20%	-7.4%
CCC(=O)N(Cc1cc(=O)[nH]c2ccccc12)c1ccc(C)cc1	-8	-1%	-10%	0.6%
CCn1c(N)c(C(=O)COC(=O)CCc2nc3ccccc3c(=O)[nH]2)c(=O)[nH]c1=O	.	.	1%	0.5%
Cc1ccccc1N1CCN(S(=O)(=O)c2ccc3oc(=O)ccc3c2)CC1	-3	8%	19%	5.6%
O=C(NC12CC3CC(CC(C3)C1)C2)c1cccnc1Cl	.	-20%	-8%	0.3%
COc1ccc(Nc2nc(N)nc(C(F)(F)F)n2)c(OC)c1	-3	-33%	-12%	0.9%
CCOC(=O)c1c(C)n(C)c2ccc(OC(C)=O)cc12	-2	-17%	17%	-2.8%
Cc1ccc(C(=O)NCCc2ccc(S(N)(=O)=O)cc2)o1	4	-1%	0%	-0.5%
CCCc1nc2ccccc2c(=O)n1/N=C/c1ccc(O)cc1O	4	11%	-20%	0.4%
Cn1c(=O)c2c(ncn2CC(=O)N/N=C/C(Cl)=C/c2ccccc2)n(C)c1=O	9	-1%	1%	-4.7%
O=C(CNS(=O)(=O)c1ccc(Br)cc1)Nc1ccc2c(c1)OCCO2	.	-3%	-28%	-0.5%
CCOC(=O)N1CCN(C(=O)CS(=O)(=O)Cc2nc(-c3cccc(OC)c3)oc2C)CC1	.	4%	-1%	0.3%
COc1ccc(C(=O)OCCN=C2NS(=O)(=O)c3ccccc32)cc1OC	-5	-8%	16%	0.5%
COCCCNC(=O)Cn1c(=O)n(Cc2ccc(C(=O)NCCc3ccc(OC)c(OC)c3)cc2)c(=O)c2ccccc21	1[21.1 µM]	-4%	-6%	-5.5%
O=C(O)c1cc(Cl)c(Cl)cc1C(=O)N(Cc1ccccc1)Cc1ccccc1	.	1%	0%	-2.1%
COc1cc(OCc2ccccc2)c(C(=O)/C=C/c2ccc3c(c2)OCO3)c(OC)c1OC	.	.	-2%	-0.1%
CCOC(=O)c1ccccc1NC(=O)CSc1nc2ccccc2c(=O)n1CCCN1CCOCC1	.	.	12%	4.6%
CC(OC(=O)c1ccc(F)c(S(=O)(=O)N2CCOCC2)c1)C(=O)NCC1CCCCC1 (configuration not stated)	.	.	-7%	0.6%
CCOC(=O)c1sc2nc3c(SCCC#N)cc(C(=O)c4cc(F)ccc4O)cn3c(=O)c2c1C	-7	-4%	-15%	?
CCCCOCCCNc1ncnc2c1[nH]c1ccccc12	-25	24%	3%	0.8%
Cc1ccc(NC(=O)CC2SC(=NCC3CCCO3)NC2=O)cc1Cl (configuration not stated)	-6	-5%	-17%	-4.5%
CN(C)c1ccc(NC(=O)c2sc(SCC(=O)Nc3ccc(Br)cc3)nc2N)cc1	4	0%	24%	-0.1%
Cc1cccc(NCc2cc(Cl)cc(Cl)c2O)n1	3	-3%	22%	5.4%
CSc1ccc(S(=O)(=O)Nc2ccc(S(=O)(=O)Nc3ccc(C)cc3)cc2)cc1	-8	-4%	?	-4.4%
Cc1ccc(-c2cc(C(=O)N3CCN(c4ccccc4O)CC3)c3ccccc3n2)o1	.	-16%	4%	1.1%
O=C(CNS(=O)(=O)c1ccc(Br)s1)N1CCN(C(=O)c2ccco2)CC1	4	1%	-17%	?
NC(=O)CSc1nnc(CNc2ccc(F)cc2)n1CC1CCCO1 (configuration not stated)	7	3%	-8%	-3.9%

Other entries.
SMILES	GLA inh pH 4.5	miR-21 reporter	Rango release inh	Rango-impB inh
NC(=O)c1nnsc1-c1ccc(-c2snnc2C(N)=O)cc1	-23	-2%	-4%	2.1%
O=C(CCCN1C(=O)c2ccccc2C1=O)NCCc1ccc(OC(F)F)cc1	.	-3%	-9%	-1.3%
O=C(CSc1nc(CCC2CCCC2)nc2ccccc12)NCc1ccc2c(c1)OCO2	10	-14%	8%	5.1%
COc1ccc(NC(=O)Cc2nn(C)c(=O)c3ccccc23)c2ncccc12	-2	-2%	.	.
O=C(O)CC(NS(=O)(=O)Cc1ccccc1)c1cccc([N+](=O)[O-])c1 (configuration not stated)	.	-3%	-1%	-1.3%
Cn1c(SCc2ccccn2)nnc1-c1ccccc1	7	-26%	7%	0.0%
COc1ccc(NC(=S)NCCc2c[nH]c3ccccc23)c(OC)c1	6	10%	-4%	-1.1%
N#CC1=C(S)N(c2ccccc2)C(c2cccs2)NC1=O (configuration not stated)	4	0%	-8%	-0.1%
O=C(CNC(=O)c1nn(Cc2ccccc2)c(=O)c2ccccc12)Nc1ccc(F)c(F)c1F	.	.	-9%	-0.7%
COc1ccc(-c2nnn(CC(=O)N3CCN(c4ccc(F)cc4)CC3)n2)cc1	-15	6%	-1%	-1.4%
Cc1sc2nc(CN3CCCCC3)nc(N3CCN(C(=O)c4ccco4)CC3)c2c1C	2	-10%	0%	-2.0%
CC[C@@H](C)C(N)c1cn([C@@H](CCC(=O)O)C(=O)N2CCNCC2)nn1 (some centres not stated)	1	-7%	0%	3.1%
COc1ccc(Nc2nc(NCC3CCCO3)c3ccccc3n2)c(OC)c1 (configuration not stated)	2	23%	7%	1.7%
O=C(C1CC(c2ccc(F)cc2)=NO1)N1CCN(Cc2ccccc2)CC1 (configuration not stated)	-1	-3%	?	-0.6%
NC(=O)c1ccc(NC(=O)COC(=O)c2cccc(Oc3ccccc3)c2)cc1	-5	-1%	-5%	-5.3%
COc1ccc(Nc2nc(Nc3ccc(OC)cc3OC)nc(N3CCN(C)CC3)n2)c(OC)c1	-11	-10%	-3%	4.3%

Reformatted: results already given.
Values in the order – GLA inh pH 4.5	miR-21 reporter	Rango release inh	Rango-impB inh
- COc1ccc(/C=N/Nc2nc(C)nc(N)n2)cc1
→ .	-39%	2%	1.9%
- COc1ccc(S(=O)(=O)N2CCCC2)cc1NC(=O)c1ccccc1
→ .	9%	-14%	-3.7%

Only part of the results is shown; rates above refer to the full screens.
